Compound activity deposited in PubChem BioAssay by Fisher Drug Discovery Resource Center.
NPYLR7 agonist: mosquito NPYLR7 agonism; HEK293T NPYLR7/Galpha15, GCaMP6s calcium fluorescence; 270,000 tested, 0.15% active; activation, % at 10 µM; AID 1259423; in the data active means activation above about 40%;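 further: 0% = vehicle and 100% = reference agonist at the receptor; some compounds past the cut are filed as inactive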
NPYLR7 agonist max-min: recorded beside NPYLR7 agonist, whose call it bears; activation, %; measured here: Max-Min RFU normalised activation; some inactives read as strong as hits;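 span of the calcium signal over five minutes; 0% = vehicle and 100% = native peptide agonist; compound fluorescence can raise it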
An asterisk follows results filed as active; & = joins results of further samples. Some of the compounds tested; rates above refer to the full screens.

canonical_smiles | NPYLR7 agonist | NPYLR7 agonist max-min
CCC(NC(=O)c1cnc(-c2cccnc2)nc1)c1nc(C)c(C)s1 (stereo not given) | 8 | 2
O=C(CCC1CCCN(Cc2ccc(-c3ccccc3)cc2)C1)N1CCOCC1 (stereo not given) | 17 | 9
Cc1ccc(-c2csc3nc(CN4CCN(C(=O)C5CC5)CC4)[nH]c(=O)c23)s1 | 1 | 1
O=C(CN1C(=O)CNC1=O)N1CCCC2(C1)C(=O)Nc1ccccc12 (stereo not given) | 0 | -1
CC(C)CC1(c2ccccc2)NC(=O)N(CCC#N)C1=O (stereo not given) | -2 | 0
Cc1ccc(-c2ccc(=O)n(CCCC(=O)Nc3cccc(C)c3C)n2)cc1 | -9 | -14
Cc1cc(C)n(C2CCN(Cc3cccc(Cn4cccn4)c3)C2)n1 (stereo not given) | 3 | 2
O=C(c1ccc(Cl)cc1)N(Cc1nccn1Cc1ccccc1F)CC1CC1 | 3 | 3
COC(=O)c1ccc(F)c(S(=O)(=O)N[C@H](C(=O)OC)C(C)C)c1 | 0 | 15
Cc1ccc(C)c(NCc2cc(=O)n3cc(C)ccc3n2)c1 | -8 | -8
O=C1c2cc(F)c(N3CCCC3)c(F)c2SC2=NCCN12 | 3 | 3
COc1ccc(C(=O)N(C)C2CCCc3ccccc32)cc1OC1CCN(C(C)C)CC1 (stereo not given) | 2 | 0
COCCNCC(=O)N(Cc1ccc(F)cc1)Cc1ccc(C)o1 | -7 | -16
Cc1nonc1CC(=O)NCC1(N(C)Cc2ccccc2)Cc2ccccc2C1 | 6 | 3
O=C(NCc1cccc(F)c1)C1CCC(=O)N(C2CCCC2)C1 (stereo not given) | 15 | -2
COc1ccc(NC(=O)NNC(=O)c2ccc(=O)n(Cc3ccc(C)cc3)c2)c(OC)c1 | 2 | 0
O=C(CSCc1ccccc1Cl)NCc1cc(C2CC2)n[nH]1 | -11 | -17
NC(=O)c1cc2c(ccc3ccccc32)oc1=Nc1ccccc1 | 4 | 2
COC(=O)c1ccc(C(=O)N2CCc3cc(OC)c(OC)cc3C2c2cccc(C(F)(F)F)c2)cc1 (stereo not given) | 18 | 12
Cc1cc(C)nc(-n2nc(C)cc2NC(=O)CN2CCCC(C)C2)n1 (stereo not given) | -4 | -4
c1cnc(-c2noc([C@@H]3Cc4nc[nH]c4CN3CC3CCCCC3)n2)cn1 | -5 | -11
CCOc1ccc(C=NNC(=O)CCC2C(=O)NN=C2C)cc1 (stereo not given) | 10 | 4
CN(C)CCCn1c2c(c(SCC(=O)Nc3ccc(C(F)(F)F)cc3)nc1=O)CCCC2 | -2 | 3
CC(=O)Nc1ccc(-n2c(CCC(=O)N3CCN(CCC#N)CC3)ccc2-c2ccc(F)cc2)cc1 | 6 | 2
CCOc1nn(CC)cc1-c1nnc(SCC)n1C | 11 | 11
Cc1nc(C)c(CNCC(O)c2ccco2)s1 (stereo not given) | -4 | -12
CCCCc1ccc(S(=O)(=O)N2CCC(Cc3ccc(OC)cc3)CC2)cc1 | -2 | -8
Cc1cc(C)c2nc(N3CCN(C(=O)c4ccno4)CC3)sc2c1 | -7 | -12
CN1CCc2c(-c3cccs3)nc3sc4c(=O)[nH]c(=O)[nH]c4c3c2C1 | -5 | -8
CC(=O)Nc1ccc(S(=O)(=O)Oc2ccccc2CN(Cc2ccco2)C(=O)CC(C)C)cc1 | 15 | 19
Cc1cc(C)c(NC(=O)CSC2=C(C#N)C(c3ccc(F)cc3)CC(=O)N2)c(C)c1 (stereo not given) | -1 | -1
CC(NC(=O)c1ccc(-c2cc(-c3cccc(C(F)(F)F)c3)n[nH]2)cc1)c1ccccc1 (stereo not given) | 21 | 10
CCOC(=O)C1CCN(C(=O)c2nn(-c3ccc(OC)c(OC)c3)c(=O)n(Cc3cccc(OC)c3)c2=O)CC1 | -2 | 5
COC(=O)c1cc(OC)c(OC)cc1NC(=O)CCc1cccs1 | 2 | 4
Cc1cn2c3c(=O)n(Cc4c(Cl)cccc4Cl)c(=O)n(C)c3nc2n1CCCO | 17 | 21
NC(=O)c1cccc(NC(=O)c2cc3ccccc3s2)n1 | 2 | 15
CCCNC(=O)COc1coc(CN2CCN(Cc3ccccc3)CC2)cc1=O | 16 | 15
O=C1CC(C(=O)N2CCCC2Cc2ccccc2)CN1c1cc(F)cc(F)c1 (stereo not given) | 8 | 5
CCc1nc(SCC(=O)N2CCN(c3ccccc3)CC2)c2oc3ccccc3c2n1 | -8 | -10
CCOC(=O)C(F)(F)c1ccccc1F | 16 | 7
Cc1ccc(CN2CCC=C(CCNC(=O)c3ccco3)C2)cc1 | -1 | -2
O=C(Nc1ccc(Oc2ccccc2)nc1)C1CCN(C(=O)c2cccs2)CC1 | 17&-1 | 6&-2
CC(=O)c1ccc(C(=O)N(CCCN(C)C)c2nc3ccc(C)cc3s2)cc1 | -11 | -2
Cc1nc2c(c(N3CCCCC3)n1)CN(C(=O)C(c1ccccc1)c1ccccc1)CC2 | 0 | 13
O=C(NC1CCCC1)c1cc(Cl)cc(Cl)c1 | 0 | -2
CCOC(=O)C1CCCCN1CC(=O)N1N=C(c2ccccc2Cl)CC1c1cccn1C (stereo not given) | 12 | 19
CCC(C)N(Cc1ccccc1OS(=O)(=O)c1ccc(NC(C)=O)cc1)C(=O)c1ccccc1Cl (stereo not given) | 3 | 13
COc1ccc(S(=O)(=O)N2CC(=O)N3CCc4c(F)cccc4C3C2)cc1OC (stereo not given) | 14 | 15
c1ccc2c(c1)c(N1CCCC1)nn1cnnc21 | 9 | 2
Cc1[nH]c(=O)[nH]c(=O)c1CCC(=O)NC(c1cccs1)C1CCCC1 (stereo not given) | 4 | 1

Continuation.
canonical_smiles | NPYLR7 agonist | NPYLR7 agonist max-min
CCCC(C(=O)OCCN(CC)CC)(c1ccccc1)c1ccccc1 | 69* | 58*
COc1cc(C)ccc1Oc1cc(N2CCN(C(=O)C3CCC3)C(C)C2)ncn1 (stereo not given) | 10 | 7
Cc1cccc(C2=NC(=Cc3ccsc3)C(=O)O2)c1 | 5 | 2
Cc1ccc(S(=O)(=O)NCC2CN(c3ccc4c(c3)OCO4)C(=O)O2)cc1 (stereo not given) | 2 | 10
CC(=O)N1CN(C2CCCC2)Cc2c1sc1c2CCCC1 | 6&14 | 22&4
CCCCCc1c(C)c(C#N)c2[nH]c3ccccc3n2c1=O | 14 | 7
CC(C)Cc1nn(-c2ccccc2Cl)c(C(C)C)c1C(=O)N1CCCCC1 | 17 | 12
O=C1NC(=S)NC(=O)C1=Cc1ccc(Sc2ccc(Cl)cc2)o1 | -13 | -15
CCN1CCOC(C(=O)Nc2ccc(-c3ncc(C(C)C)o3)cc2)C1 (stereo not given) | -4 | -3
Cc1nn(C)cc1C(C)n1ccnc1-c1ccc(N(C)C)nc1 (stereo not given) | 6 | 8
CCOc1cc([C@H]2N[C@](CO)(c3ccccc3)[C@H]3CN(C)C[C@@H]23)ccc1O | -1 | -8
CCc1nc(N)sc1C(=O)N(C)C1Cc2ccccc2C1 | 5 | 2
Cc1cc(=O)c(C(=O)N[C@@H](C(=O)N[C@@H]2C(=O)N3C(C(=O)O)=C(CSc4nnnn4C)CSC23)c2ccc(O)cc2)c[nH]1 (stereo not given in full) | -5 | -6
CC(C)(C)OC(=O)N1CCCC1CN1CCN(C2CCCC2)CC1 (stereo not given) | 1 | 1
Cc1cc(C=C(C#N)C(=O)O)c(C)n1CC1CCCO1 (stereo not given) | 6 | 1
O=C(CN1CCc2sccc2C1c1cccc(F)c1)N1CCCN(S(=O)(=O)c2ccc(Br)cc2)CC1 (stereo not given) | 6 | 1
CCCCN(CC(=O)N(Cc1cccn1Cc1ccccc1Cl)CC(C)C)C(=O)NCc1ccccc1 | 21 | 29
CNC(=O)CN1CCN(C(=O)c2cn(C)cc3c(=O)n(-c4ccccc4)nc2-3)CC1 | -2 | -5
O=[N+]([O-])c1cc(S(=O)(=O)N2CCCCCC2)ccc1NCCc1cn2ccccc2n1 | -8 | -13
O=C(Nc1cccc(-c2cccc(Cl)c2)c1)C1CCN(C(=O)c2cccnc2)CC1 | -4 | -6

Entries of single compounds, looked up by structure. Order of screens: NPYLR7 agonist	NPYLR7 agonist max-min
Cc1cc(=O)c(C(=O)N[C@@H](C(=O)N[C@@H]2C(=O)N3C(C(=O)O)=C(CSc4nnnn4C)CSC23)c2ccc(O)cc2)c[nH]1 (stereo not given in full) as listed: -5	-6
CNC(=O)CN1CCN(C(=O)c2cn(C)cc3c(=O)n(-c4ccccc4)nc2-3)CC1 as listed: -2	-5
CCc1nc(N)sc1C(=O)N(C)C1Cc2ccccc2C1 as listed: 5	2
CCCCN(CC(=O)N(Cc1cccn1Cc1ccccc1Cl)CC(C)C)C(=O)NCc1ccccc1 as listed: 21	29
Cc1cc(C=C(C#N)C(=O)O)c(C)n1CC1CCCO1 (stereo not given) as listed: 6	1

The main list resumes with the 6 entries that preceded the break.
canonical_smiles | NPYLR7 agonist | NPYLR7 agonist max-min
Cc1cc(C=C(C#N)C(=O)O)c(C)n1CC1CCCO1 (stereo not given) | 6 | 1
O=C(CN1CCc2sccc2C1c1cccc(F)c1)N1CCCN(S(=O)(=O)c2ccc(Br)cc2)CC1 (stereo not given) | 6 | 1
CCCCN(CC(=O)N(Cc1cccn1Cc1ccccc1Cl)CC(C)C)C(=O)NCc1ccccc1 | 21 | 29
CNC(=O)CN1CCN(C(=O)c2cn(C)cc3c(=O)n(-c4ccccc4)nc2-3)CC1 | -2 | -5
O=[N+]([O-])c1cc(S(=O)(=O)N2CCCCCC2)ccc1NCCc1cn2ccccc2n1 | -8 | -13
O=C(Nc1cccc(-c2cccc(Cl)c2)c1)C1CCN(C(=O)c2cccnc2)CC1 | -4 | -6
O=S(=O)(Cc1nc2ccccc2s1)CC(O)c1ccc(F)c(F)c1 (stereo not given) | 2 | -3
CC(C)CN1C(=O)NC(Cc2cccc(F)c2)(C2CCN(C(=O)c3cc(C4CC4)[nH]n3)CC2)C1=O (stereo not given) | 16 | 2
CC(C)[C@@H](N)C(=O)N[C@@H]1C=C(C(=O)N[C@@H](CCS(C)(=O)=O)C(N)=O)C[C@@H](O)[C@@H]1O | -6 | -15
COc1cccc(NC(=O)C2(C)CCN2Cc2ccc(NC(C)=O)cc2)c1 (stereo not given) | 3 | -4
CCOC(=O)c1sc2nc(C(C)OC(=O)CCc3c(C)noc3C)[nH]c(=O)c2c1C (stereo not given) | 0 | 6
N#Cc1ccccc1S(=O)(=O)Nc1ccccc1N1CCCC1=O | 7 | 7
O=C(CC(c1ccccc1)c1ccccc1F)NCCN1CCCCC1=O (stereo not given) | 5 | 1
CCC(CC)(CNC(=O)N1CC2CCCCC2C1)S(C)(=O)=O (stereo not given) | 2 | 1
CN1CCN(C(CNC(=O)NCc2cccs2)c2ccc3c(c2)CCN3C)CC1 (stereo not given) | -7 | -13
CC(C)(C)c1csc(N)n1 | 3 | 4
COc1ccc(C2CCCN2C(=O)c2ccc3c(=O)n4c(nc3c2)CCC4)c(OC)c1 (stereo not given) | -2 | -1
O=C(c1ccco1)N(Cc1c(-c2ccc(F)cc2)noc1N1CCOCC1)CC1CCCO1 (stereo not given) | 0 | 2
Cc1ccc(OC2CCN(Cc3ccncc3)CC2)c(C(=O)NC2CCOC2)c1 (stereo not given) | 2 | -2
O=C(c1csc(CSc2nnc(-c3ccccc3Cl)n2-c2cccc(Cl)c2)n1)N1CCN(c2ccccc2F)CC1 | 0 | 11
Cc1ccc2c(-c3cc4c(n(CC5CC5)c3=O)CCN(C(=O)c3cncs3)C4)cccc2n1 | 18 | 4
CC(C)=CC(=O)N(Cc1ccc(C)s1)C1CC1 | -5 | -6
CCSc1nnc(SCC(=O)NC(=O)NC2CCCC2)s1 | -2 | 5
CCCCCCc1ccc(C(=O)N2CCCC2C(=O)Nc2nnc(-c3ccc(Br)cc3)s2)cc1 (stereo not given) | 11 | 16
Nc1nc(SCC(=O)N2CCC(c3ccccc3Cl)C2)n[nH]1 (stereo not given) | 18 | 4
CC(C)(C)c1cc(Oc2cccc(Cl)c2)nc(SCc2c(F)cccc2F)n1 | 1 | 13
CC(C)c1nsc(NC2CCOC3(CCCC3)C2)n1 (stereo not given) | 4&12 | 5&5
COC(=O)C1C(Cc2ccccc2)N1C(=O)OC(C)(C)C (stereo not given) | 1 | 0
N#CCSc1nc2ccccc2c2nc(CCc3c[nH]c4ccccc34)nn12 | 12 | 8
COc1c(F)cccc1C(=O)N(C)Cc1cccc2ncccc12 | -3 | -5
COc1ccc(OCc2cc(C(=O)N(C)CCc3cnn(C)c3)no2)c2ccccc12 | -8 | -8
O=C(NCc1ccc2sccc2c1)C1CCC(=O)N(Cc2ccccn2)C1 (stereo not given) | 3&10 | -1&7
COc1ccc(NC(=O)C2CCCN2C(=O)Nc2cccc(N3CCOC3=O)c2)cc1 (stereo not given) | -5 | -4
Cc1cc(Cn2cnc3c2C[C@@H](C(=O)O)N(C(=O)C(c2ccccc2)c2ccccc2)C3)ccc1N | 5 | -10
O=C(c1cccnc1Sc1ccc(Cl)cc1)N1CCN(Cc2cc(=O)c(OCc3cccc(F)c3)co2)CC1 | 14 | 1
CCc1ccccc1C(=O)NC1CC(=O)N(C2Cc3ccccc3C2)C1 (stereo not given) | 9 | 3
Cc1noc(-c2ccccc2OC(=O)c2ccccc2)n1 | -5 | -9
CC(C)c1ccc(CN2CCN(C(=O)CSc3nccn3C)CC2)cc1 | 4 | 4
CSc1ccc(CN2C(=O)C(F)(F)Oc3c(C(C)=O)cccc32)cc1 | 4 | 1
Cc1ccc(C(=O)Nc2c(C)nc3c(C)cccn3c2=O)cc1 | 2 | 0
CCOc1ccccc1NC(=O)Cn1nc(-c2ccccc2)c2sc(N3CCOCC3)nc2c1=O | -4 | -8
Cc1cc(C)nc(NC(N)=NCc2ccccc2)n1 | 0 | -4
CC(=O)N1CCn2nc(C(=O)N(C)Cc3cc(-c4cccs4)n[nH]3)cc2C1 | 4 | 4
CCCCCCCCS(=O)(=O)N1CCC(C(=O)NC2CCCC[C@H]2NC(=O)c2ccccc2)CC1 (stereo not given in full) | 29 | 26
CCN(CCOC)c1cc(C2CCNCC2)ncn1 | 1 | 5
CC(/C=C1\SC(=S)N(CC(=O)O)C1=O)=C\c1ccccc1 | -7 | -10
Nc1nc(N2CCc3c([nH]c4ccccc34)C2)c2[nH]cnc2n1 | 8 | 10
COc1ccc(CC2(CO)CCN(Cc3cn(C)c4ccccc34)CC2)cc1 | 11 | 3
